NPYLR7 ag – mosquito NPYLR7 agonism. 0.15% of 270,000 active. AID 1259423. HEK293T NPYLR7/Galpha15, GCaMP6s calcium fluorescence. activation, % at 10 µM; in the data active = activation above about 40%;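 also: 0% = vehicle and 100% = reference agonist at the receptor; some compounds past the cut are filed as inactive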
NPYLR7 ag max-min – further read-out of NPYLR7 ag, marked with its call; activation, %; measured here: Max-Min RFU normalised activation; some inactives read as strong as hits;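 span of the calcium signal over five minutes; 0% = vehicle and 100% = native peptide agonist; compound fluorescence can raise it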
Active calls of the source: *; & = joins results of further samples. An excerpt. The share of hits here may be higher or lower than overall.

The opening 2 entries, to show the layout:
cpd	compound	NPYLR7 ag	NPYLR7 ag max-min
1	Cc1cccnc1C1=NOC(C)C(=O)N1CC(=O)N1CCOCC1 (stereo not drawn)	7	8
2	CO[C@@H]1CC[C@H]2C[C@@H]1[C@@H](Oc1ccccn1)CN2C(=O)c1cccnc1SC	19	26

Main list, previewed entries included:
cpd	compound	NPYLR7 ag	NPYLR7 ag max-min
1	Cc1cccnc1C1=NOC(C)C(=O)N1CC(=O)N1CCOCC1 (stereo not drawn)	7	8
2	CO[C@@H]1CC[C@H]2C[C@@H]1[C@@H](Oc1ccccn1)CN2C(=O)c1cccnc1SC	19	26
3	CC(C)C(=O)NCCc1nc2ccccc2n1CCCCOc1ccccc1	-1	-8
4	C=C(C)CN1N=C(c2ccc(Cl)cc2)Cn2c1nc1c2c(=O)n(CC(=C)C)c(=O)n1C	6	12
5	COc1ccc(C2c3ccsc3CCN2CC(=O)N2CCN(C(=O)C3CCCCC3)C(C)C2)cc1 (stereo not drawn)	11	0
6	COc1ccccc1-n1c(SCc2ccc(C(=O)NC3CC3)cc2)nnc1-c1ccccc1Cl	0	6
7	O=C(Oc1nsnc1N1CCOCC1)N1CCOCC1	4	2
8	CCOC(=O)c1c(C)n(-c2ccccc2)c2ccc(OC(=O)c3cccs3)cc12	-2	-5
9	Cc1ccccc1C1(O)CCN(CC2CCC(N)CC2)C1 (stereo not drawn)	-2	-3
10	Cc1cccc(CNC(=O)c2ccc3c(c2)OCC(=O)N3)c1	0	-4
11	CCN(Cc1noc(C)n1)C(=O)CC1C(=O)NCCN1C1Cc2ccccc2C1 (stereo not drawn)	0	-2
12	COc1cccc(-c2ccnc3[nH]n(-c4nc(C)cc(C)n4)c(=O)c23)c1	3	1
13	Oc1oc(-c2ccc(Br)cc2)nc1C=Nc1ccccc1Br	-3	-10
14	O=C(C1COc2ccccc2C1)N1CCN(S(=O)(=O)c2ccc(F)c(F)c2)CC1 (stereo not drawn)	2	0
15	CC(Cc1ccc2c(c1)OCO2)CN1CCC2(CC1)C(=O)N(Cc1cccnc1)C(=O)N2C (stereo not drawn)	9	0
16	Cc1cnc(C)c(-c2cc(N)nc3[nH]ccc23)n1	14	3
17	CC(C)N(CCC(=O)N1CCN(C(c2ccccc2)c2ccccc2)CC1)c1nc(Cc2ccc(F)cc2)ns1	-5	4
18	COc1ccc(S(=O)(=O)N2CCN(c3nc4ccccc4nc3C)CC2)cc1	20	24
19	CN1CCN(S(=O)(=O)c2ccc(Nc3ccc4c(c3)OCO4)c([N+](=O)[O-])c2)CC1	4	6
20	N#CSC(C#N)Cc1cc(Cl)ccc1Cl (stereo not drawn)	-2	-3
21	COc1cc(C)c(NC(=O)c2cccnc2N2CCCC2)cc1OC	2	1
22	CC(Cn1cncn1)NC(=O)Nc1cc(F)cc(N2CCCC2)c1 (stereo not drawn)	7	1
23	COc1ccc2[nH]c(C)c(CCNC(=S)NCc3ccccc3)c2c1	-2	-3
24	N#Cc1ccccc1CS(=O)(=O)NC(=O)/C=C/C1CCCCC1	1	15
25	O=C(c1nnn(-c2ccccc2)c1CSc1ncccn1)N1CCN(c2cccc(Cl)c2)CC1	-2	-8
26	Nc1ccc(-c2ccc3ccccc3n2)cc1	0	0
27	Clc1ccc2c(Oc3cccc(Br)c3)ccnc2c1	1	-1
28	COc1ccc2nc(-c3ccc(Cl)c(NC(=O)Nc4cccs4)c3)cn2n1	0	-1
29	O=C1NC(=S)N/C1=C/c1ccc(O)c(O)c1	0	-8
30	O=C(CSc1ccc2nnc(-c3ccccn3)n2n1)N1CCN(c2ccccc2)CC1	-5	-4
31	N#Cc1c(NC(=O)CCN2CCN(C(=O)N3CCCCC3)CC2)sc2c1CCCCC2	6	3
32	CCOC(=O)c1c(C)[nH]c(C(=O)N(CC2CCCO2)C2CCS(=O)(=O)C2)c1C (stereo not drawn)	0	17
33	CN1C(=O)C2(c3ccccc31)c1c(oc3ccccc3c1=O)C(=O)N2CCO (stereo not drawn)	7	7
34	Cc1sc2nc(CN3CCOCC3)nc(Nc3ccc4cn[nH]c4c3)c2c1C	1	-3
35	CCOc1cccc(N2C(=O)CC(NCc3ccc(S(N)(=O)=O)cc3)C2=O)c1 (stereo not drawn)	6	3
36	COc1cncc(-c2ccnc3n[nH]c(-c4ccccc4OC)c23)c1	0	-1
37	CCc1nc2ccc(C(=O)NCc3ccc(OC)cc3)cn2c1N(C)Cc1ccc(OC)cc1	-3	-7
38	C=C(C)Cn1c(=O)c2c(nc3n(-c4cccc(O)c4)c(C)cn23)n(C)c1=O	2	3
39	Cc1cc(C)cc(C(O)c2ncc(-c3cccc(C(F)(F)F)c3)[nH]2)c1 (stereo not drawn)	-10	-12
40	CC(C)(C)Oc1cccc(CCC(=O)O)n1	1	-7
41	CCOC(=O)Cc1cc(=O)n2[nH]cc(-c3ccc(OC)c(OC)c3)c2n1	-15	-22
42	CSc1ccc(Cn2c(C)c(C(=O)NCc3ccccc3C(F)(F)F)sc2=O)cc1	-5	-6
43	Cc1c(C(=O)N2CCN(c3ccccc3)CC2)oc2c1C(=O)CCC2	3	5
44	O=C(c1cc(-c2ccccc2)n[nH]1)N1CC(=O)N(C2CCCCC2)CC(OCc2cccnc2)C1 (stereo not drawn)	18	7
45	Cc1cccc(NC(=O)CSc2nncc(=O)[nH]2)c1	-1	-1
46	COc1ccc(-c2cnc3ncnn3c2N2CCCN(C(=O)C34CC[C@@](C)(C(=O)O3)C4(C)C)CC2)cc1OC	4	-2
47	Cn1c(COC(=O)c2ccc3c(c2)NC(=O)CCS3)cc(=O)n(C)c1=O	4	4
48	C=CCNc1nsc(C(=O)c2ccc(OC)c(OC)c2)c1N	14	2
49	C/C=C(\C)CN(CC)CCN(CC)CC	-9	-14
50	Fc1ccccc1-c1noc(-c2ccc(NCCCn3ccnc3)nc2)n1	12	5

Reformatted field by field: 4 of the compounds above.
26) Nc1ccc(-c2ccc3ccccc3n2)cc1
- NPYLR7 ag: 0
- NPYLR7 ag max-min: 0
27) Clc1ccc2c(Oc3cccc(Br)c3)ccnc2c1
- NPYLR7 ag: 1
- NPYLR7 ag max-min: -1
28) COc1ccc2nc(-c3ccc(Cl)c(NC(=O)Nc4cccs4)c3)cn2n1
- NPYLR7 ag: 0
- NPYLR7 ag max-min: -1
29) O=C1NC(=S)N/C1=C/c1ccc(O)c(O)c1
- NPYLR7 ag: 0
- NPYLR7 ag max-min: -8

Next section.
cpd	compound	NPYLR7 ag	NPYLR7 ag max-min
51	COc1ccc(NC(=O)c2nnn(-c3cccc(SC)c3)c2C)cc1	7	11
52	Cc1nc(-c2cccs2)ccc1C(=O)OC(C)C(=O)N1CCNC1=O (stereo not drawn)	2	0
53	CC(C)CNC(=O)C(CC(C)C)N1C(=O)CSC1c1ccco1 (stereo not drawn)	5	15
54	O=C(c1cc2c(F)cc(Br)cc2[nH]1)N1CCCC(C(=O)N2CCOCC2)C1 (stereo not drawn)	0&2	6&1
55	Cc1cc(C)c(C#N)c(SCC(=O)c2ccc(F)cc2)n1	-6	-9
56	Cc1cc(C)c(C#N)c(Nc2ccc(Cl)cc2Cl)n1	0	-4
57	COc1ccc2[nH]cc(CCNC(C)=O)c2c1	-2&-6&2	-9&-11&-29
58	CN(Cc1cccc(Cl)c1)C(=O)NCC(c1ccccc1)N1CCOCC1 (stereo not drawn)	6	4
59	CC1CCC2(CC1)NC(=O)N(CC(=O)NCC(F)(F)F)C2=O (stereo not drawn)	11	15
60	CCC1CCCN(C(C)(C)CNC(=O)C2(C)CCOCC2)C1 (stereo not drawn)	-1	-5
61	CCN(C(c1cccnc1)c1ccc2c(c1)CCO2)S(C)(=O)=O (stereo not drawn)	6	4
62	CCOC(=O)c1ccn(-c2cccc(NC(=O)N3CCOC(C)C3)c2)n1 (stereo not drawn)	-6	-6
63	Cc1ccc(C(=O)Nc2nnc(C(C)(C)C)s2)c(O)c1	-2	-2
64	COc1ccc(-n2nc(C)c(-c3ccccc3)c2NC(=O)CN(C(=O)Nc2cccc(Br)c2)C(C)C)cc1	0	7
65	CCN(C)c1ccc(C(=O)OCc2noc(C)n2)cc1	5	4
66	CCn1nnc2c(Nc3cccc(Cl)c3)ncnc21	7	13
67	O=C(c1ccc(F)cc1F)N1CCC2(CC1)OCC(C(=O)N1CCCC1)N2C(=O)c1ccccc1 (stereo not drawn)	-1	5
68	Cc1ccc(C(=O)N2CCCC(CO)(Cc3ccccc3)C2)cc1N1CCNC1=O (stereo not drawn)	23&-14	9&-19
69	Cc1ccc(-n2nnc3c(N4CCN(C(=O)CCC5CCCCC5)CC4)ncnc32)cc1	-6	-18
70	CN(Cc1ccccc1)C1CCCN(C(=O)CCc2ccc(F)cc2)C1 (stereo not drawn)	6	4
71	CCC(C)CN(CC(=O)N1CCc2sccc2C1COc1ccc(F)cc1)C(=O)NC(C)(C)C (stereo not drawn)	-3	-1
72	Cc1ccc(C(NC(=O)C2CCN(Cc3ccccc3F)CC2)c2ccccn2)cc1 (stereo not drawn)	7	13
73	Cc1cc(C(=O)Nc2ccc(F)cc2)nc2cc(C(C)(C)C)nn12	-5	6
74	COC(c1ccccc1)c1nnc(CCC(=O)N(C)C(C2CC2)C2CC2)o1 (stereo not drawn)	3	0
75	Cc1cc(C(=O)N(C)CCCn2cccn2)on1	-6	-7
76	Cc1cccc(NC(=O)c2cc3cc([N+](=O)[O-])ccc3s2)n1	30	18
77	Cc1cc(N2CCOCC2)n2nc(C)c(-c3ccccc3Cl)c2n1	3	11
78	CCOC(=O)[C@@H]1[C@@H](OC(N)=O)C(=O)N(Cc2ccccc2)C12CCN(C(=O)c1cc(C)oc1C)CC2	0	10
79	N#Cc1c(CSCC(=O)O)cc(=O)n2c1[nH]c1ccccc12	-4	-8
80	CCOCC(=O)Nn1cnc2c(cnn2-c2ccc(C)cc2)c1=O	3	1
81	CC(=O)N1CCCC(N2CCN(CCOc3ccccc3)CC2)C1 (stereo not drawn)	-1	-2
82	Cn1ncc(Oc2ccccc2)c(Nc2ccc(C(=O)NCc3ccccc3)cc2)c1=O	5	14
83	CCc1nc2ccc(C(=O)Nc3cccc(OCC(=O)N(C)C)c3)cn2c1N(C)Cc1nccn1C	-4	-7
84	CC(C)c1nccn1C(C)C(=O)N1CCc2[nH]nc(-c3cccc(F)c3)c2C1 (stereo not drawn)	0	-1
85	CCOC(=O)c1c(C)oc2cc(Br)c(OCC(=O)OCc3ccccc3)cc12	1	-5
86	OCCOc1cccc(CN2CCCC(Nc3ccc(F)c(F)c3)C2)c1 (stereo not drawn)	5	1
87	CCCC(C)(C)NC(=O)c1sc(-c2ccccn2)nc1C	0	-3
88	Cc1nn(C)c(C)c1-c1ccnc(NCCc2cscn2)n1	0	-6
89	CC(C)NCCN(C(C)C)S(=O)(=O)c1ccc(Cl)cc1Cl	-11	-17
90	Cc1ccc(-c2ccnc(-c3ccc[nH]3)n2)c(C)n1	-7	-10
91	Cc1cccc(C(=O)NCCC(=O)N2CC=C(c3ccccc3)CC2)c1	1	-1
92	COCC(=O)N1CCC(C(NC(=O)c2ccccc2)C(=O)N2CCOCC2)CC1 (stereo not drawn)	3	1
93	O=C1Nc2ccccc2/C1=C\C(=O)c1ccc(CCCl)cc1	-1	-13
94	Cc1cccnc1CN1CCN(C/C=C/c2ccccc2)CC1	6	5
95	CC(C)=CC(=O)N1CCC(CC(=O)N2CCC(N(C)C)CC2)CC1	1	3
96	CN(C)c1cccc(N2C(=S)SC3CS(=O)(=O)CC32)c1 (stereo not drawn)	7	0
97	COc1ccc(S(=O)(=O)NC2CCSc3ccccc32)cc1OC (stereo not drawn)	5	2
98	COc1ccc(CC(=O)N2CCOC(Cc3ccccc3)C2)cc1 (stereo not drawn)	-4	-7
99	CC[C@H]1C[C@@H](NC(=O)c2ccccc2)C[C@@H](CCn2nc(C)cc2C)O1	-1	0
100	CC1CCCC(C)N1NC(=O)c1ccc(S(=O)(=O)C(F)F)cc1 (stereo not drawn)	-20	-23

Further results:
cpd	compound	NPYLR7 ag	NPYLR7 ag max-min
101	CC1(C)CCCC(CO)=C1CSc1ccccc1	4	2
102	Cc1nc2ccccc2n1CN1CCc2sccc2C1	6	4
103	O=[N+]([O-])c1cc2c(c(CSc3nc4ccc(Cl)cc4[nH]3)c1)OCOC2	1	5
104	CCc1ncc(C(=O)NCc2cn[nH]c2-c2cccs2)cn1	23	9
105	Cc1ccsc1S(=O)(=O)N1CCCC(O)(CN(C)C)CC1 (stereo not drawn)	10	7
106	CC(C)c1ccc(C(=O)N2CCN(C(=O)c3cnc(Cl)c(Cl)c3)CC2)cc1	-1	-3
107	COc1cc(OC)cc(-c2onc(C)c2C(=O)NCCc2ccncc2)c1	6	3
108	C(=N/Nc1cc(N2CCCCC2)nc(N2CCCCC2)n1)/c1ccncc1	-5	-6
109	CN1CCCC(CN(C)C(=O)c2ccccc2-c2ccccc2)C1 (stereo not drawn)	8	-1
110	O=C1NCC2(CCCN(Cc3cnc(C4CCCCC4)nc3)CC2)O1 (stereo not drawn)	1	-4
111	Cc1ccc2nc(C)c(NC(=O)Cc3ccc(Br)cc3)c(=O)n2c1	4	0
112	CCOC(=O)c1cccc(NC(=O)NC(c2ccc(S(C)(=O)=O)cc2)c2cccc(N(C)C)c2)c1 (stereo not drawn)	-17	-27
113	Cc1cc(C(=O)CN(C)Cc2nccn2CC(F)(F)F)c(C)[nH]1	6	4
114	CCC(CC)n1nc(C)cc1NC(=O)c1n[nH]c(=O)c2ccccc12	-4	-1
115	COc1ccc(C(=O)N2CCCC(Nc3ccc(C(C)C)cc3)C2)c(OC)n1 (stereo not drawn)	0	-1
116	CC(C)c1nc2cc(Cl)ccc2n(Cc2ccccc2)c1=O	3	24
117	N#CC1(NC(=O)c2cnc(Cc3ccccc3)s2)CCSC1 (stereo not drawn)	3	2
118	COc1cc(Cl)c(C)cc1Nc1ncccn1	-1	-2
119	Cc1cc(C)n2nc(C(F)(F)F)nc2n1	4	6

Individual results from the results shown:
Under NPYLR7 ag, #110 is listed with 1
Under NPYLR7 ag, #108 is listed with -5
Under NPYLR7 ag, #113 is listed with 6
Under NPYLR7 ag, #101 is listed with 4
Under NPYLR7 ag max-min, #118 is listed with -2
Under NPYLR7 ag max-min, #111 is listed with 0
Under NPYLR7 ag max-min, #106 is listed with -3

Screens (PubChem BioAssay)
